VDR inh: vitamin D3 receptor (human) inhibition | P11473 | VDR-SRC2-3 peptide fluorescence polarization, 2 h | Potency, µM, without a hit: max response, negative = inhibition, hits mostly inhibitors | hit rate 0.93% among 400,000 | AID 504847; active = well fitted inhibition curve with a large enough effect; inconclusive = small, poorly fitted or top-dose-only effect, or another doubt; inactive = no such curve, though single readings can be large or run the other way; note: series mostly up to about 120 µM
Target sequence (P11473 whole entry, looked up): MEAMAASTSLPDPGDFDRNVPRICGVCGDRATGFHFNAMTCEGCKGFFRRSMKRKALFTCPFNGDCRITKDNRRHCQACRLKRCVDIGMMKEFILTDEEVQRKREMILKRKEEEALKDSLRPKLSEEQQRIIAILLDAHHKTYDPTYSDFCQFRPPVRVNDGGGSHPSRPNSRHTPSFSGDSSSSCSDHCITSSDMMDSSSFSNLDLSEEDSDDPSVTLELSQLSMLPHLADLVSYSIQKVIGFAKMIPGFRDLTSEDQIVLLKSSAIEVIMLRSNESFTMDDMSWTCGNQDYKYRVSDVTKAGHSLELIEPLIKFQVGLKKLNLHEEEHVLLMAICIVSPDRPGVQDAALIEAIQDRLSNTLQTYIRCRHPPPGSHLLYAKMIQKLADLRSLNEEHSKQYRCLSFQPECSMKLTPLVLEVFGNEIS
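Compounds are added to VDR with labelled SRC2-3 coactivator peptide and held 2 h at room temperature. Inhibition of the VDR–peptide interaction is then read as a change in fluorescence polarization.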
* = called active by the depositor; ? = inconclusive; & = joins results of further samples. % is set by controls: 0 for no effect and ±100 for the full control effect; potency is the fitted concentration of half-maximal effect.

mol,VDR inh
O=C(NNC(=O)c1cccs1)c1ccc(S(=O)(=O)N2CCCCC2)cc1,-22%
N[C@@H](Cc1ccccc1)c1nnc(SCc2ccccc2Cl)o1,15%
Cc1ccc(NC(=O)c2cc(=O)[nH]c3ccc(S(=O)(=O)N4CCOCC4)cc23)nc1,-8%
O=C(CCC1CCCCC1)NCCS(=O)(=O)N1CCN(c2ccccc2)CC1,-4%
CCOC(=O)c1c(C)[nH]c(CCC(=O)NCc2ccccc2Cl)c1C,12%
O=C(c1ccccc1Cl)n1nc(-c2ccco2)nc1NCc1cccs1,7%
CCc1cc2c3c(c1)C1(C(=O)N3C(C)(C)C=C2C)C(C#N)=C(N)Oc2[nH]c(=O)[nH]c(=O)c21 (stereo not given),7%
CCCNC(=O)C/C(C)=N/NC(=O)C(=O)Nc1ccccn1,2%
COc1ccccc1CNC(=O)C(=O)NCC1OCCN1S(=O)(=O)c1ccccc1 (stereo not given),-10%
COc1ccccc1NC(=O)COC(=O)c1ccc([N+](=O)[O-])s1,-11%
COc1ccc(Cc2noc(CN3CCCN(Cc4ccc(F)cc4)CC3)n2)cc1OC,8%
COc1cc2cc(CCCOC(=O)c3ccc(C(F)(F)F)cc3)oc(=O)c2cc1OC,1%
COc1ccc(C2NC(=O)CCC2[N+](=O)[O-])c(OC)c1 (stereo not given),-14%
CC(=O)N1CCOc2ccc(S(=O)(=O)N(C)c3cccc(C)c3)cc21,-29%
O=[N+]([O-])c1ccc(N2CCN(c3ccc(F)cc3)CC2)cn1,1%
Cc1ccc(C)c(N2CCN(C(=O)Cn3c(=O)oc4cc(S(=O)(=O)N5CCCC5)ccc43)CC2)c1,0%
Cc1ccc(C(=O)OCC(=O)Nc2ccccc2Cl)c(O)c1,?
Cc1nn2c(COc3ccc(NC(=O)c4ccccc4)cc3)nnc2c2ccccc12,-3%
COc1ccccc1C(CNC(=O)c1ccc(C)c(S(=O)(=O)N2CCCCC2)c1)N(C)C (stereo not given),-8%
COc1cc(NC(=O)COCc2cc(-c3ccc4c(c3)OCO4)on2)c(OC)cc1Cl,16%
N/C(=N\N=C/c1ccc(F)cc1)N/N=C\c1ccc(F)cc1,-2%
COc1ccc(C2NC(C(=O)O)Cc3c2[nH]c2ccccc32)cc1CN1CCN(c2ccc(F)cc2)CC1 (stereo not given),5%
C#CCOc1ccccc1CNc1ccccc1,-3%
COCC(C)NC(=O)c1ccc2c(c1)S(=O)(=O)c1ccccc1C2=O (stereo not given),-4%
CCN(CC(=O)Nc1ccc2c(c1)OCCO2)C(=O)c1ccc(C)c(S(=O)(=O)N2CCOCC2)c1,-10%
Cc1c(O)c(CN2CCCCC2)cc2c3c(c(=O)oc12)CCC3,3%
COc1ccc(NC(=O)c2nc[nH]c2C(=O)N(C)Cc2ccccc2)cc1,3%
COc1cccc(/C=C/C(=O)NNC(=O)c2ccncc2)c1,16%
CN(C(=O)c1cc2c(=O)oc3ccccc3c2s1)c1ccc(F)cc1,-13%
COc1cc(N[C@@H](C)CCCN)c2ncccc2c1,5%
CCOC(=O)C1=C(C)N=C2SCCC(=O)N2C1c1ccc(OCc2ccccc2)cc1 (stereo not given),2%
O=C(O)c1ccoc1CN1CCCCC1,5%
CCOC(=O)C(NC(=O)CCC(=O)Nc1ccc(S(N)(=O)=O)cc1)C(O)c1ccccc1 (stereo not given),12%
CC(C)n1c(SCc2ccc(Cl)cc2)nc2c1c(=O)[nH]c(=O)n2C,-21%
Cc1ccc2oc(=O)c3cc(C(=O)N4CCN(c5ccccc5)CC4)sc3c2c1,-29%
CN(c1ncnc2c1c(-c1ccccc1)cn2-c1cccc(Cl)c1)C1CCCCC1,13%
CCOC(=O)/C(C#N)=C1/C=Nc2ccccc2N1,7%
COc1ccc2ccccc2c1-c1c(OC)ccc2ccccc12,-2%
Cc1cc(S(=O)(=O)N2CCCC2)ccc1OCC(=O)N1CCOCC1,2%
CC(C)C(C(=O)NCc1ccco1)N(C(=O)CNS(=O)(=O)c1ccccc1)c1ccccc1 (stereo not given),-4%

For reference, some entries already given.
mol,VDR inh
COc1ccc(C2NC(C(=O)O)Cc3c2[nH]c2ccccc32)cc1CN1CCN(c2ccc(F)cc2)CC1 (stereo not given),5%
C#CCOc1ccccc1CNc1ccccc1,-3%
COCC(C)NC(=O)c1ccc2c(c1)S(=O)(=O)c1ccccc1C2=O (stereo not given),-4%
CCN(CC(=O)Nc1ccc2c(c1)OCCO2)C(=O)c1ccc(C)c(S(=O)(=O)N2CCOCC2)c1,-10%
Cc1c(O)c(CN2CCCCC2)cc2c3c(c(=O)oc12)CCC3,3%
COc1ccc(NC(=O)c2nc[nH]c2C(=O)N(C)Cc2ccccc2)cc1,3%
COc1cccc(/C=C/C(=O)NNC(=O)c2ccncc2)c1,16%

(cont.)
mol,VDR inh
COc1cc(Cl)cc(C(=O)O)c1OCC(=O)O,0%
O=[N+]([O-])c1cc2c(cc1/C=N/Nc1nc(Nc3ccccc3)nc(N3CCCCC3)n1)OCO2,17%
COc1ccc(C(c2nnnn2CS(=O)(=O)c2ccc(C)cc2)N2CCN(Cc3ccccc3)CC2)cc1 (stereo not given),-6%
O=C(CC1C(=O)NCCN1CC1CCCCC1)NCCCN1CCOCC1 (stereo not given),-5%
COC(=O)COc1ccc2c(-c3ccc(OC)cc3)cc(=O)oc2c1,-5%
O=C(CCC1CCCN(C(=O)Cn2cnnn2)C1)NCc1ccccc1F (stereo not given),-10%
COc1ccc(C2C(C(=O)O)CCC(=O)N2c2ccc(C)cc2)cc1OC (stereo not given),2%
CCCOC(=O)CSc1nnc(-c2ccccc2)o1,9%
CC12CC3(C)CC(C)(C1)CC(C(=O)Nc1nn[nH]n1)(C2)C3,2%
CC(C)NC(=S)N(C)C1(c2ccccc2Cl)CCCCC1=O (stereo not given),10%
O=C(NCC(c1ccco1)N1CCN(c2ccc(F)cc2)CC1)c1ccco1 (stereo not given),-7%
COc1ccc(CC(=O)Nc2ccccc2-c2ccccc2)cc1OC,-22%
COc1ccc(-c2sc3ccccc3c2-c2ccc(OCCN3CCOCC3)cc2)cc1,-1%
COCCNC(=O)CSc1nc2sccc2c(=O)n1-c1ccccc1,-10%
Fc1ccc(-n2nc(-c3ccccc3)c3cnc4ccccc4c32)cc1Cl,?
CCOc1ccccc1NC(=O)Nc1nnc(N2CCCCCC2)s1,20%
CC1(C)CC(CC(=O)NNc2nc(-c3ccccc3)cs2)C(=O)O1 (stereo not given),?
CCCn1c(SCC(=O)NC2CCCC(C)C2C)n[nH]c1=O (stereo not given),-2%
COCC(=O)N1CCC(Oc2ccc(C(=O)N3CCCCC3COC)cc2)CC1 (stereo not given),10%
COc1cccc(NC(=O)CSc2nnc3scc(-c4ccc(Cl)cc4)n23)c1,-5%
COC(=O)c1cc(OC)c(OC)cc1NC(=O)Nc1ccccc1F,-8%
CC1(C)CC(=O)C(C=NCCN2CCN(C(=S)Nc3cccc(Cl)c3)CC2)=C(O)C1,-6%
CCCC(=O)NC(=S)c1c(C)n(C)n(-c2ccccc2)c1=O,-10%
CC(=O)O[C@@]1(C(C)=O)CCC2C3C=C(C)C4=CC(=O)CCC4(C)C3CCC21C (stereo not given in full),?
O=C1NC(c2cccc3ccccc23)Nc2ccccc21 (stereo not given),12%
O=C(CNc1ccc2ccccc2c1)N/N=C/c1ccncc1,-5%
CCOCC(=O)Nc1nc2c(s1)C(=O)CC(C)(C)C2,3%
CCOc1ccc2noc3c2c1C(=O)c1ccccc1-3,-1%
O=C(CSCc1ccccc1)N/N=C/c1ccc(OCC(=O)N2CCCCC2)cc1,-9%
CCCc1nnc(NS(=O)(=O)c2ccc(OC)cc2)s1,-6%
COc1ccc(C)cc1NC(=O)C(C)N1CCOCC1 (stereo not given),4%
CCC(=O)c1ccc(OC(=O)/C=C/c2cc(OC)c(OC)c(OC)c2)cc1,-4%
CCCCCOC(=O)C(C)c1c(C)[nH]c(=S)[nH]c1=O (stereo not given),6%
O=C(NC1CCCC1)C1=COCCO1,-11%
COC(=O)C1=C(C)NC2=C(C(=O)CC(C)(C)C2)C1c1ccsc1 (stereo not given),1%
CCOC(=O)CNC(=O)C1(NC(=O)CNC(=O)OCc2ccccc2)CCCC1,-6%
Cc1nnc(NC(=O)C23CC4CC(CC(C4)C2)C3)s1,5%
O=C(CN1C(=O)NC2(CCCC2)C1=O)N1CCc2ccccc2C1,15%
CCc1ccc(NC(=O)Cn2c(=O)n(Cc3ccco3)c(=O)c3oc4ccccc4c32)cc1,17%
COc1cc(OC)c(NC(=O)c2ccc(-n3cnc4cccnc43)cc2)cc1Cl,17%
O=C(Nc1ccccc1N1CCCCC1)c1ccc(N2C(=O)c3ccccc3C2=O)cc1,-9%
CCc1cccc(C)c1NC(=O)CSc1ncn[nH]1,-13%
O=C(Nc1cc2c3c(c1)C1CCCC1CN3CC1CCCC21)c1ccccc1 (stereo not given),21%
Cc1cn2c(=O)c(S(=O)(=O)NCc3ccc(F)cc3)c(C)nc2s1,4%
COc1cc(NC(=O)C(CCS(C)(=O)=O)N2Cc3ccccc3C2=O)cc(OC)c1OC (stereo not given),6%
CC1CCCCN1CCNC(=O)c1cc2c(-c3ccccc3F)nn(C)c2s1 (stereo not given),-27%
Cc1ccc(C)c(OCCC(=O)NNC(=O)c2ccccc2F)c1,4%
CCC(C)(C(=O)NC1CCCCC1)N(C(=O)C1CCC(=O)N1)c1ccc(C)cc1 (stereo not given),-10%
CCOC(=O)CSc1cc(-c2ccccc2)nc2ncnn12,-5%
CCOC(=O)c1c(C)[nH]c(CCC(=O)Nc2ccc(Cl)cc2C)c1C,4%
CC1CC(C)CN(CCCNS(=O)(=O)c2cc(Br)cc3c2N(C(=O)C2CC2)CC3)C1 (stereo not given),4%
CCc1ccc(C(=O)COC(=O)c2cc([N+](=O)[O-])ccc2NCCO)cc1,-1%
CCOC(=O)N1CCN(C(=O)C2CCCN(S(=O)(=O)c3cc(C)ccc3OC)C2)CC1 (stereo not given),13%
CCOC(=O)c1c(C)[nH]c(C(=O)COC(=O)CNC(=O)C2CCCCC2)c1C,9%
COc1ccc(C(OC(=O)c2ccco2)C(=O)NC2CCCC2)cc1 (stereo not given),4%
COc1ccc2cc(C(C)C(=O)N3CCC(C)CC3)ccc2c1 (stereo not given),-7%
CC(=O)[C@@]1(O)CC[C@H]2[C@@H]3C[C@H](C)C4=CC(=O)CC[C@]4(C)[C@H]3CC[C@@]21C,4%&-18%
Cc1cccc(C(=O)N(Cc2nc3ccccc3c(=O)[nH]2)C2CCCC2)c1,1%
CCCNC(=O)/C(=C/c1cn(S(=O)(=O)N(C)C)c2ccccc12)NC(=O)c1ccc(OC)cc1,?
Cn1cc(C(=O)N/N=C/c2ccc([N+](=O)[O-])cc2)c2ccccc21,1%

Random excerpt: three entries already listed.
mol,VDR inh
Cc1cccc(C(=O)N(Cc2nc3ccccc3c(=O)[nH]2)C2CCCC2)c1,1%
CCc1cccc(C)c1NC(=O)CSc1ncn[nH]1,-13%
CCC(C)(C(=O)NC1CCCCC1)N(C(=O)C1CCC(=O)N1)c1ccc(C)cc1 (stereo not given),-10%

Later entries
mol,VDR inh
CCCC(=O)OC/C(O)=C(\C#N)c1nc2ccccc2[nH]1,6%
CCc1noc(C)c1C(=O)OCC(=O)N1CCc2ccccc21,-14%
CCOc1ccccc1NS(=O)(=O)c1ccc2[nH]c(=O)ccc2c1,18%
COc1cc2nc(N3CCN(c4cc(C)ccc4C)CC3)nc(N)c2cc1OC,-1%
CC(C)CCNC(=O)CCCOc1cc(=O)n(C)c2ccccc12,-1%
CCN(CCNC(=O)C1CC(=O)N(CCc2ccccc2)C1)c1ccccc1 (stereo not given),7%
CN1C(=O)[C@@H]2[C@H](C1=O)[C@@H]1C(=O)Nc3ccccc3C(=O)N1[C@@H]2c1ccc(Br)cc1,16%
Fc1ccc(-n2ncc3c(N4CCN(c5ccccc5F)CC4)ncnc32)cc1,15%
Cc1ccccc1NC(=O)NC1(C(=O)N2CCCC2)CCCCC1,18%
CC(=O)N1CCC(=NNc2ccc(S(N)(=O)=O)cc2[N+](=O)[O-])CC1,-6%
COc1ccccc1N1CCN(c2ncnc3c2c(-c2ccccc2)cn3-c2cccc(C)c2)CC1,-1%
COCCNC(=O)C(OC(=O)c1cccs1)c1ccc(F)cc1 (stereo not given),-23%
COc1ccc(CCNC(=O)COC(=O)/C=C/c2cccs2)cc1OC,7%
Cc1ccc(CNC(=O)Cn2nc(C)n3cccc3c2=O)cc1,24%
O=C(COC(=O)c1ccc(Oc2ccccc2)cc1)Nc1nnc(-c2ccccc2)o1,-7%
COc1cccc(C(=O)Nc2ccccc2C(=O)N2CCCC2)c1,-10%
COc1cccc(NC(=O)c2ccco2)c1,-2%
O=C1OCCC1Sc1nnc(-c2cccs2)n1Cc1ccccc1 (stereo not given),-4%
CC(=O)c1c(C)[nH]c(C(=O)N(C)C(c2ccccc2)c2ccccc2)c1C,3%
Nc1c(-c2cccc(Cl)c2)cnn1-c1cccc([N+](=O)[O-])c1,-8%

These rows are one share of the data; the hit share may differ from the screen's.
